# Vif A3G: inhibitors of Vif binding to APOBEC3G peptide, primary screen, biochemical, TR-FRET, GST-Vif 1-94, biotin-A3G peptide, dose response retest (AID 1117319); hit rate 0.57% among 260,000; inhibition, %, or IC50 in µM where a hit was titrated; Virion infectivity factor (Human immunodeficiency virus type 1 group M subtype B (isolate …; TR-FRET GST-Vif / biotin-A3G peptide binding; higher % means a stronger effect; test concentration not given here; strong numbers were not always called active;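 active means above the screen mean plus three standard deviations and confirmed in dose response; inconclusive means results disagree or hit not tested in dose response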;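 further: Vif residues 1-94 fused to GST binding biotinylated APOBEC3G peptide 110-148; 0% = full assay without inhibitor and 100% = GST in place of GST-Vif; retest series ran down from 100 µM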
# LANA-H2A inh: blockers of LANA interaction with H2A/H2B – biochemical, FP readout, HTS, primary screen. Protein LANA1 (Human herpesvirus 8 type P (isolate GK18)), Q9QR71. cell-free LANA-H2A/H2B peptide, fluorescence polarization. inhibition, % (concentration not given with the values). hit rate 0.6% among 320,000. AID 2629, 2010; in the data active means inhibition mostly above about 10%, no sharp cut-off; inactive means mostly below about 6.7%;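 further: stock transfer was 7.5 nL into about 10 µL; 0% = median of vehicle wells and 100% = median of positive control wells; one replicate is shown; the record names a cut of 25% in any replicate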
# Ecoli growth: E. coli growth inhibition, primary screen, OD600 | OD600 absorbance (test concentration not listed) | Escherichia coli growth, 23 h; hits give low values | AID 1053175, 2014 | hit rate 0.21% among 330,000;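 active means OD600 absorbance below the run mean of sample wells minus 3.6 SD, in any replicate, cut at about 0.56 in these data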;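 further: stock transfer was 300 nL into about 60 µL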
# HNF4A DNA FP: change in binding of human HNF4A to DNA, primary screen, biochemical, fluorescence polarization, FITC-DNA; 1 h; hit rate 0.3% among 360,000; Hepatocyte nuclear factor 4-alpha (Homo sapiens), P41235; activity change, % at 10 µM; in the data active means activity change above about 30%, passing the limit was not always enough;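 further: controls were the assay level and a saturating level of protein; the project sought stronger binding though the title names inhibitors; some compounds called inactive have numbers as strong as hits; positive values seem to mean higher polarization but the record does not say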
# UCH37 DUB inh: inhibitors of human UCH37 deubiquitinase, primary screen, biochemical, Ub-AMC cleavage, fluorescence | Ubiquitin carboxyl-terminal hydrolase isozyme L5 (Homo sapiens), Q9Y5K5 | purified proteasome/UCH37 | inhibition, % (concentration not given with the values) | hit rate 0.33% among 330,000 | AID 588478, 2011;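 active means mean of two replicates above 20%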;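 further: 0% = compound-free wells with enzyme and 100% = wells lacking proteasome; stock transfer was 100 nL into about 20 µL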
# Target sequence (Q9Y5K5 whole entry, looked up): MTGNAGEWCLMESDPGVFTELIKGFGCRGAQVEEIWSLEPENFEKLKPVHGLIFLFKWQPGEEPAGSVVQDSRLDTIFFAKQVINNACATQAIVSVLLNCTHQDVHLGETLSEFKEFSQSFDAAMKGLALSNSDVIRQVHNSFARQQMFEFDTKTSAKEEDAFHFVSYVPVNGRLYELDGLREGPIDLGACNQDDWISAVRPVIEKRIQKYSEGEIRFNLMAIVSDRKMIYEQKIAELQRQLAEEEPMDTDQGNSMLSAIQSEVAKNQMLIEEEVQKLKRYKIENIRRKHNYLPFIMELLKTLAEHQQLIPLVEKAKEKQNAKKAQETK
#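 Reagent: Ub-AMC substrate; assay system: Proteasome-associated human UCH37 deubiquitinase; controls: no-proteasome and no-compound wells; read-out: % inhibition of Ub-AMC cleavage fluorescence; timing: 30 min preincubation with enzyme, 25 min cleavage at room temperature; signal: AMC fluorescence from Ub-AMC cleavage, excitation 355 nm, emission 460 nm; buffer or medium: Tris-HCl pH 7.4 plus ovalbumin, ATP-MgCl2, DTT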
# Beta2AR agonist: beta2AR agonists driving receptor internalization, primary screen, cell-based, FAP fluorogen, flow cytometry; hit rate 0.43% among 340,000; Beta-2 adrenergic receptor (Homo sapiens), P07550; response, % (no concentration beside the values); Am2.2-beta2AR cells; reference of the scale not given here;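 active means response above a set limit, near 3 SD of response in nonfluorescent compounds, cut at about 42% in these data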;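 further: stock transfer was 100 nL into about 11 µL; a reference agonist was the positive control; negative values mostly stem from fluorescent compounds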
# Target sequence (P07550 whole entry, looked up): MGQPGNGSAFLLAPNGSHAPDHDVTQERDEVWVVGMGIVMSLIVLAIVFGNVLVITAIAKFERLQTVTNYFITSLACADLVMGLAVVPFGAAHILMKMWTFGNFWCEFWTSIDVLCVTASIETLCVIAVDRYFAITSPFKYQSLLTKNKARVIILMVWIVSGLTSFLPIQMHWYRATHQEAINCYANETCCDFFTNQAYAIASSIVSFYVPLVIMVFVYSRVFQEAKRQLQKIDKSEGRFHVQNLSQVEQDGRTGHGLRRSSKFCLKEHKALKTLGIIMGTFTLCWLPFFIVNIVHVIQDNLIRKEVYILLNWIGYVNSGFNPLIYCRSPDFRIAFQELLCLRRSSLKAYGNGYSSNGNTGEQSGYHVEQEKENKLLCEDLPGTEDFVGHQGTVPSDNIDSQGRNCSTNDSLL
# Bfl-1 A1 inh: caspase 3/7 activation in MEF A1-2A-BIM cells, primary screen, A1 inhibitor project, cell-based, luminescence, HTS | Caspase-Glo 3/7 luminescence, 3 h; percent of clofoctol response, vehicle zero | caspase activation, % (test concentration not listed) | AID 2462, 2010 | hit rate 0.066% among 330,000;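 active means over half of replicate activation scores above 10%, or exactly half above 10 with the replicate mean above 10; inconclusive means replicate mean below 10 yet half the replicates above 10; inactive means over half of replicates below 10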;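 further: wells of about 30 µL received 50 nL stock; many hits fall short of the cut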
# Starred values were filed as active, the others as inactive; ? = inconclusive; · = no result given.
SMILES,Vif A3G,LANA-H2A inh,Ecoli growth,HNF4A DNA FP,UCH37 DUB inh,Beta2AR agonist,Bfl-1 A1 inh
CCc1noc(C)c1C(=O)NNC(=O)c1cc(OC)cc(OC)c1,·,-0.5,0.65,0.3,1.4,-4,-0.7
C[C@H](NC(=O)[C@@H]1Cc2ccccc2CN1C(=O)OC(C)(C)C)C(=O)NC1CCCC1,·,-3.3,0.63,-1.4,-3.4,-6,0.3
CCOc1ccccc1NC(=S)NC(=O)c1ccco1,-3%,·,0.72,1.1,-0.5,-2,·
Cc1ccc(CN2CC(C(=O)N(C)CC(=O)Nc3cccc(F)c3)CC2=O)cc1 (stereo not drawn),-11%,-1.5,0.72,1.5,4.0,-10,-0.9
CCCS(=O)(=O)C(=C1Nc2ccccc2N1)S(=O)(=O)CCC,8%,-1.8,0.71,2.6,2.3,-5,-0.4
CNC(=O)c1ccc2c(c1)nnn2C,·,2.1,0.67,-3.9,0.5,11,-0.1
Cc1cccc(N/N=C/c2ccncc2)c1,5%,-4.4,·,3.5,·,-1,-0.3
CCOC(=O)C1(Cc2ccccc2C(F)(F)F)CCN(CC2CC2)CC1,·,0.4,0.68,-0.1,0.7,8,1.5
CCOc1ccc(N(CC(=O)NCc2cccnc2)S(=O)(=O)c2ccc(F)cc2)cc1,·,5.2,0.69,-0.2,1.5,-11,0.5
O=C(c1cc2cc(Br)ccc2o1)N1CCOCC1,-4%,-0.6,0.72,-1.6,1.8,3,-0.3
COc1ccc(NC(=O)CSc2nc3ccc(Nc4nc(N5CCOCC5)nc(N5CCOCC5)n4)cc3s2)cc1,·,5.1,0.77,-1.6,3.8,21,3.6
O=C(O)CC1(Cc2nc(-c3cccs3)no2)CCCC1,0%,-1.4,0.72,1.4,4.2,-2,0.3
CCn1c(CCNC(=O)c2ccc(OC)cc2)nnc1SCC(=O)Nc1ccccc1F,·,1.8,0.68,-1.3,0.8,4,0.2
COc1ccc(-n2c3nc4ccccc4nc3c3c(=N)oc(C)nc32)cc1,-95%,2.2,0.67,27,5.5,-13,0.4
O=C(Cc1ccsc1-c1ccccc1)NO,7%,-1.6,0.62,1.0,0.0,-3,0.5
CC1CCCN(C2=NC(=O)/C(=C/c3cn(-c4ccccc4)nc3-c3cccc(S(=O)(=O)N(C)C)c3)S2)C1 (stereo not drawn),-5%,0.0,·,3.4,-2.5,6,-0.9
CC(Oc1cc(C(F)(F)F)cc(C(F)(F)F)c1)C(=O)NC(N)=O (stereo not drawn),-11%,-3.9,0.73,-2.5,1.3,6,0.7
Cc1cccc(C)c1OCC(=O)N/N=C/c1cc2c(cc1[N+](=O)[O-])OCO2,29%,-2.2,·,-3.8,·,-2,0.4
Cc1ccc(C2CC(C(F)(F)F)n3nc(C(=O)Nc4c(C)n(C)n(-c5ccccc5)c4=O)cc3N2)cc1 (stereo not drawn),-14%,-3.1,0.66,3.8,-8.7,1,0.7
O=C(Cn1c(C(F)(F)F)nc2ccccc21)c1ccccc1,6%,-1.1,0.66,-1.1,1.4,2,-0.2
Cc1cc(NN)nc(Cc2ccccc2)n1,·,0.2,0.66,-3.6,0.4,-3,1.0
CN(c1ncnc(N)c1[N+](=O)[O-])C1CCCCC1,·,-1.0,0.69,0.1,5.9,-4,-1.3
COc1ccc(NC(=S)NNC(=O)CCn2cc([N+](=O)[O-])cn2)cc1,-4%,1.9,0.7,0.9,2.8,1,-1.1
CN(c1ccccc1C(=O)O)S(C)(=O)=O,4%,1.6,0.71,-2.7,0.1,2,-0.7
COc1ccc(-c2nc3c(c(=O)[nH]c(=O)n3Cc3ccccc3)n2C)cc1,20%,-5.3,0.67,1.7,-2.5,15,0.0
CNS(=O)(=O)c1ccc(NC(=O)C(CCSC)NC(N)=O)cc1 (stereo not drawn),1%,-1.2,0.74,3.9,-1.8,2,0.0
COCCSc1nnc(NC(=O)C2CC(=O)N(c3ccc(Cl)cc3)C2)s1 (stereo not drawn),-1%,·,0.69,2.5,4.1,2,0.1
O=C(Cn1c(=O)cnc2ccccc21)N1CCN(S(=O)(=O)c2ccccc2Br)CC1,-10%,2.3,0.65,4.1,3.6,11,-0.2
CN1CCN(C(=O)CCN2C(=O)c3ccccc3S2(=O)=O)CC1,7%,-0.1,0.65,7.2,-0.7,2,1.8
N#CCCN(Cc1ccccc1)C(=O)c1nccnc1C(=O)O,-11%,0.2,0.68,-2.2,-0.1,-5,-1.5
CN(C)c1ccc(/C=N/NC(=O)CNC(=O)/C=C/c2ccccc2)cc1,·,-4.9,·,0.3,·,-1,0.4
O=C(Nc1ccc(Cl)cc1)OCc1cc(-c2ccccc2Cl)on1,26%,-4.2,0.79,-4.1,-6.0,-8,0.7
CC1CCCCN1C(=O)COc1ccccc1F (stereo not drawn),·,-0.6,0.71,1.5,4.7,-3,-0.2
O=C(CSc1nnc(-c2ccncc2)o1)Nc1ccccc1C(F)(F)F,3%,-4.4,0.7,3.6,2.6,2,1.1
C=CCNC(=O)C1CCN(S(C)(=O)=O)CC1,10%,4.2,0.71,-2.5,0.8,-5,0.1
NC(=O)C1CCN(CC(=O)N2N=CCC2c2ccccc2)CC1 (stereo not drawn),-2%,-1.0,0.71,1.7,0.7,-5,0.2
CN(C)c1ccc(C(=O)NCC(c2cccs2)N2CCOCC2)cc1[N+](=O)[O-] (stereo not drawn),-6%,0.9,0.7,-3.4,2.5,-5,0.7
C[C@H]1CN([C@@H](C)CO)C(=O)c2cccc(NC(=O)c3ccc(-c4nccs4)cc3)c2O[C@@H]1CN(C)C(=O)Nc1cccc2ccccc12,·,1.8,·,4.5,1.1,-10,1.3
Cc1sc2nc(C(C)C)nc(SCC(=O)NC3CC3)c2c1C,·,-4.0,0.71,4.3,1.5,-12,-1.7
COc1cc(CNC2CCCC2)cc(Cl)c1OCc1ccc(F)cc1,6%,-2.2,0.68,-2.0,1.8,8,-0.4

# Looked up above.
# Ecoli growth with O=C(CSc1nnc(-c2ccncc2)o1)Nc1ccccc1C(F)(F)F stands at 0.7
# Vif A3G with COc1cc(CNC2CCCC2)cc(Cl)c1OCc1ccc(F)cc1 stands at 6%

# Next section:
SMILES,Vif A3G,LANA-H2A inh,Ecoli growth,HNF4A DNA FP,UCH37 DUB inh,Beta2AR agonist,Bfl-1 A1 inh
OCCCNCc1ccc(Cl)cc1Cl,·,-0.4,0.68,4.3,0.6,0,0.0
Cc1nnc(SCC(=O)Nc2ccc(N3CCOCC3)cc2)n1Cc1ccccc1,·,1.9,0.7,0.2,1.1,-7,0.0
COc1ccc2nc(Nc3nc(CSc4ccc(C)cc4)cc(=O)[nH]3)nc(C)c2c1,9%,3.7,0.67,-0.8,4.0,1,-0.2
CCCCCCSc1ccc([C@@H]2[C@@H]3C(=O)N(CC)C(=O)[C@@H]3[C@]3(C(=O)OC)CCCCN23)cc1OC,·,1.8,·,-0.9,-2.8,4,-2.7
COc1ccccc1OCCn1c(SCC(=O)O)nc2ccccc21,1%,-1.6,0.69,-7.0,3.1,5,0.4
COc1ccc(OC)c(C(C)NC(=O)c2ccc(Br)cc2)c1 (stereo not drawn),·,·,0.67,1.7,4.1,0,-0.1
O=c1c2ccccc2[nH]c2ccccc12,1%,0.3,0.57,2.6,-381,9,0.1
O=C1C(c2ccc(F)cc2)N(Cc2ccc3c(c2)OCO3)C(=O)CN1C1CCCCC1 (stereo not drawn),6%,0.1,0.71,-3.6,3.0,-9,0.1
O=C(O)CSc1nnc(C2CC2)n1-c1ccccc1,4%,1.5,0.71,1.9,2.2,-1,0.2
CC12CCC(=O)N1C(C(=O)Nc1ccc(Cl)c(S(=O)(=O)N3CCCCC3)c1)CS2 (stereo not drawn),5%,·,0.71,4.6,2.3,0,-0.9
CC(C)(C)SCCNC(=O)COc1ccccc1,?,-4.1,0.67,-4.0,1.6,3,-0.3
NS(=O)(=O)c1ccc(CCNC(=O)c2ccc3nccnc3c2)cc1,27%,-0.9,0.74,-26,-0.4,-4,0.9
O=C(COC(=O)c1ccc(F)c(S(=O)(=O)N2CCOCC2)c1)NCCc1ccc(F)cc1,·,12,·,-4.0,·,5,1.3
CCCCn1c(N)c(N(C(=O)CSc2nnnn2-c2ccccc2)C2CCCC2)c(=O)[nH]c1=O,-2%,-0.2,0.7,0.3,0.1,0,-1.3
Cc1cccc(NC(=S)N/N=C/C(C)c2ccccc2)c1C (stereo not drawn),-5%,0.0,·,2.4,·,14,0.1
Cc1ccccc1-c1nc(CSc2nc3c(c(=O)[nH]2)CCC3)c(C)o1,-3%,4.4,0.81,0.4,3.5,-4,-0.3
Cc1cc(-c2csc3ncnc(N4CCN(C)CC4)c23)cc(C)c1C,6%,0.0,0.65,3.1,1.8,7,0.2
COc1ccc(OC)c(N(C)S(=O)(=O)c2ccc3c(c2)N(C(C)=O)CCO3)c1,2%,1.7,0.72,-4.2,-0.4,-2,0.6
COc1ccc(/C=N/NC(=O)CCc2ccccc2)cc1O,-4%,3.7,·,-0.9,·,2,-0.4
Cc1ccc(C)c(N2N=C(C(=O)Nc3ccc(S(=O)(=O)N4CCCC4)cc3)CCC2=O)c1,·,-0.6,0.68,-2.7,4.4,12,1.7
CCC(C(=O)N1CCN(c2cccc(Cl)c2)CC1)c1ccccc1 (stereo not drawn),?,-4.4,0.72,-1.4,2.6,6,-0.6
CC(C)Oc1ccc(CNC(=O)C2CCCN(S(=O)(=O)N3CCOCC3)C2)cc1 (stereo not drawn),·,6.0,0.67,4.3,1.8,-4,0.6
O=C(COc1ccccc1C(=O)Nc1ccccc1)c1ccc(F)cc1,?,5.2,0.74,1.6,1.2,-9,0.0
COC(=O)c1cc(OC)c(OC)cc1NC(=O)CSc1nnc(-c2cccnc2)n1C,31%,-0.6,0.75,-2.1,2.4,-6,0.7
C/C(CC(=O)Nc1ccc(C)c(Cl)c1)=N\NC(=O)C1CCCCC1,-9%,-0.5,·,-4.3,·,2,0.3
CCOC(=O)C1CCCN(C(=O)CN2C(=O)NC(C)(c3ccc4ccccc4c3)C2=O)C1 (stereo not drawn),-11%,5.8,0.68,-2.0,-0.1,5,-0.7
O=C(CN1N=C(c2ccccc2)CCC1=O)NCCN1CCc2ccccc2C1,5%,1.1,0.67,5.6,2.7,-2,0.3
Brc1cc2c(cc1CN1CCc3ccccc3C1)OCO2,-4%,-3.5,0.63,5.8,4.3,0,0.7
Nc1ncnc2oc(-c3ccco3)c(-c3ccco3)c12,0.55µM*,1.3,0.65,-56,-100,16,0.9
Cc1ccc(S(=O)(=O)c2nnn3c2nc(Nc2cccc(C)c2)c2ccccc23)cc1,-4%,6.9,0.73,2.3,-96,-5,?
Cc1ccc(/C=N/n2c(-c3ccncc3)n[nH]c2=S)s1,11%,3.7,·,-3.3,·,4,0.7
Cc1ccc(O)c(NC(=S)NC(=O)/C=C/c2ccccc2)c1,1%,-2.3,0.75,0.3,3.3,-6,0.5
